From PubChem BioAssay
TRPV1 potentiator: enhances activation of the human vanilloid receptor TRPV1 | AID 540277 | TRPV1-expressing cells, Fluo-8 calcium influx, capsaicin EC20 potentiation; host cell line not named in the record; control for the full effect not named in the record | hit rate 0.02% among 320,000 | potentiation, % at 8.33 µM; active means potentiation above 80%; inconclusive means 30% to 80%; inactive means below 30%; further: 0% is about no effect
Target sequence (Q8NER1 whole entry, looked up): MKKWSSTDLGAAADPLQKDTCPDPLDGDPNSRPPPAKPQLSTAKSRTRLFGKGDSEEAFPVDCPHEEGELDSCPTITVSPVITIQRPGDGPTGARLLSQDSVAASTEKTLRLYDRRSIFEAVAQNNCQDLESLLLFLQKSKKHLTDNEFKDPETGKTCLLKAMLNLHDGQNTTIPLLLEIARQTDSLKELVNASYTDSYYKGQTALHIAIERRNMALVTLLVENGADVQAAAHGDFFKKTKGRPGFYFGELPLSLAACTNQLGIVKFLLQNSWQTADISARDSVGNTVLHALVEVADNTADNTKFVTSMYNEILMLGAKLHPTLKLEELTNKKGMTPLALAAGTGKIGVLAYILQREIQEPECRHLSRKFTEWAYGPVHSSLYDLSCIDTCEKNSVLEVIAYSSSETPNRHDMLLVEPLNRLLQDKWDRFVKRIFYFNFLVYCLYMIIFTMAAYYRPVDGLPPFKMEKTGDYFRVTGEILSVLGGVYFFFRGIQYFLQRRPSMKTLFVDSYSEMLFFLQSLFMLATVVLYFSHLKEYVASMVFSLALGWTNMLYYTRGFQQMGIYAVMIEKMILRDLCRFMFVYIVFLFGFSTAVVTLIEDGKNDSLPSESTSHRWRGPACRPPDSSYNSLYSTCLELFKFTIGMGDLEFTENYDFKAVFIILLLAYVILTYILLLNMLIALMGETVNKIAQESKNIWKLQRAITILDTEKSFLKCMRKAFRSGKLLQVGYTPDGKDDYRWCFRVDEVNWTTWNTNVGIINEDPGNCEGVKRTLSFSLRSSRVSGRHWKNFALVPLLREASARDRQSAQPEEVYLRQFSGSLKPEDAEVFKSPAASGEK
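Cells expressing TRPV1 were dye-loaded with Fluo-8 and read kinetically: 10 s baseline, 3 min after compound (agonist portion), then 2 min after EC20 capsaicin (allosteric enhancer portion). Calcium-bound dye fluorescence at 480/520 nm.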
TRPML1 blocker: inhibitors of human TRPML1 channel; TRPML1-inducible cells, Ca2+ dye fluorescence, FDSS; stronger effect = lower value; inhibition of EC80 agonist-evoked calcium signal; AID 624415; Q9GZU1; hit rate 0.02% among 390,000; activity change, negative = inhibition, % (test concentration not listed); in the data active means activity change below about -50%; inconclusive means about -30% to -50%; inactive means above about -30%;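 further: stimulus is agonist 54-4 at its EC80 concentration; on the % scale 0 is the no-effect control and ±100 the full control effect; compound concentration not given in the record; the text of the record puts the active cut at -80%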
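Calcium fluorescence in TRPML1-DL cells induced overnight with Tet: a 110 s read after compound pin addition, then a 110 s antagonist read after challenge with 54-4 at 4 uM final (EC80).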
Sfp inh: Sfp phosphopantetheinyl transferase inhibition | Q9F4F7 | hit rate 3.5% among 310,000 | AID 1490 | Potency, µM, for the others: max response, negative = inhibition, usual class: inhibitors | Biochemical Sfp PPTase activity, qHTS; active means well fitted inhibition curve with a large enough effect; inconclusive means small, poorly fitted or top-dose-only effect, or another doubt; inactive means no such curve, though single readings can be large or run the other way;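 further: the enzyme is Sfp with the accession as filed and its product quenches rhodamine fluorescence; potency means the concentration at half of the fitted maximal effect; 0% = enzyme reaction without inhibitor and -100% = no enzyme wells; top concentration of the series not given in the record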
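Fluorescence-quenching assay with 15 nM Sfp, 5 uM rhodamine-CoA and 12.5 uM BHQ-2-labelled ybbR peptide in pH 7.6 Hepes/MgCl2 buffer. Enzyme was pre-incubated with compound for 15 min at room temperature. Rate was taken from the 30-min fluorescence change (525/598 nm).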
PINK1 expr mod: changes PINK1 expression; PINK1 immunofluorescence, high-content cytometry, 24 h; Potency, µM (highest dose often 76.6 µM), inactives show top-dose activation (PINK1 increase), most hits filed as activators; hit rate 0.2% among 410,000; active = well fitted activation curve with a large enough effect; inconclusive = small, poorly fitted or top-dose-only effect; inactive = flat fitted curve, though single readings scatter; cell line not stated here;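 further: potency means the concentration at half of the fitted maximal effect; % of control where 0% means no effect; nearly all actives have a fitted effect of over 65% in size; a mitochondrial uncoupler was the plate control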
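Cells are seeded, rested 12 hours, then given compound at five concentrations or DMSO for 24 hours. After fixation, blocking and antibody staining, PINK1 amount and mitochondrial localization are scored; CCCP serves as control.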
TRPML1 ag: activates the human TRPML1 channel. AID 624414. hit rate 0.12% among 410,000. activation, % (test concentration not listed). TRPML1-expressing cells, Ca2+ dye fluorescence, FDSS; host cell line not named in the record; reference of the full effect not given here; in the data active = activation above about 50%; inconclusive = about 30% to 50%; inactive = below about 30%; further: 0% is about no effect; the text of the record puts the active cut at 80%
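TRPML1-DL cells, Tet-induced overnight (~16 h, 37 degrees C), loaded 45-90 min at room temperature with Ca8 no-wash calcium dye plus quencher. FDSS fluorescence: 10 s baseline, compound pin-transfer, 110 s agonist read, then EC80 54-4 (4uM final) and 110 s antagonist read.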
ClpP mod: qHTS Assay for Activators of ClpP | ATP-dependent Clp protease proteolytic subunit (Bacillus subtilis (strain 168)), P80244 | purified B. subtilis ClpP, FRET peptide cleavage, 20 min | Potency, µM (titrated, usually from 57.5 µM), for inactives: at the top dose activity change, negative = active | hit rate 1.9% among 340,000 | AID 651965, 2013; active = well fitted falling curve with a large enough effect; inconclusive = small, poorly fitted or top-dose-only effect; inactive = no such curve, though single readings can be large or run the other way; further: potency means the concentration at half of the fitted maximal effect; the source files actives as falling curves though it sought activators and does not explain the sign; nearly all actives have a fitted effect of over 65% in size; many hits overshoot -100%
Target sequence (P80244 whole entry, looked up): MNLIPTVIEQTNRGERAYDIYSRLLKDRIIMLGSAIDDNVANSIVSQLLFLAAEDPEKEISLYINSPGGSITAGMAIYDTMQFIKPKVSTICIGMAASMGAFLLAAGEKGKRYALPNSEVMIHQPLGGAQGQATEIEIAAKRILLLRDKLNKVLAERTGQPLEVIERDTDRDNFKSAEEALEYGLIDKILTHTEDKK
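ClpP 10 microg/mL final, pH 8 Tris/KCl buffer with BSA, glycerol, Tween-20; compound pinned in; FRET-FV substrate; RT 20 min; Ex320/Em430; ΔFRET vs ADEP 5.8 microM, DMSO, no enzyme.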
Menin MLL FP FL: inhibitors of human menin-MLL interaction, wild-type MLL peptide; AID 1766; FP activity change, % at 61.4 µM; Fluorescence polarization, fluorescein-MLL peptide displacement from menin; 290,000 tested, under 10 active; inconclusive = falling polarisation curve, or a change in total fluorescence; inactive = total fluorescence flat and polarisation flat or rising; no compound was filed as active; the % refers to the polarisation; negative = inhibition;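 further: % of control where 0% means no effect; inhibitors lower the polarisation; unlabelled MLL peptide was the positive control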
* marks the source's active call; other numbers are inactive results; u = inconclusive; x = not tested or not shown; & = joins results of further samples; [ ] = dose if it differs, or a comment.

SMILES | TRPV1 potentiator | TRPML1 blocker | Sfp inh | PINK1 expr mod | TRPML1 ag | ClpP mod | Menin MLL FP FL
CCNC(=O)C1CCCN1S(=O)(=O)c1ccc(C)cc1 (stereo not given) | -31.3 | 1.2 | -8.9% | -3.1%[38.3 µM] | 0.1 | 1.2% | -2.1
Cc1occc1C(=O)Nc1ccc([N+](=O)[O-])cc1Br | 2.3 | 0.8 | -0.6% | 0.4% | 0.4 | 0.3% | x
COc1cc(/C=N/NC(=O)c2cc[n+]([O-])cc2)ccc1O | -2.6 | -13.9 | 11.2% | -0.6% | 0.6 | x | 3.3
Nc1nc(-c2cccc(F)c2)cs1 | 0.9 | 19.4 | -2.8% | 0.9% | 0.1 | x | u
CCOC(=O)c1c(NC(=O)Cn2cc([N+](=O)[O-])cn2)sc2c1CCC2 | 6.4 | 3.1 | -1.3% | 14.4%[38.3 µM] | 1.2 | 1.1% | -0.8
c1ccc(Cn2ccnc2-c2ccco2)cc1 | -6.7 | 18.3 | -22.9% | 0.8% | -1.3 | -0.3% | 2.2
CC(C)C(=O)NC(C)C(c1cccs1)N1CCN(c2ccccc2)CC1 (stereo not given) | -25.6 | -4.2 | -4.7% | -2.2% | 0.3 | 0.6% | -1.8
CC(=O)Nc1cccc(NC(=O)Nc2ccc(C(C)=O)cc2)c1 | -3.2 | 15.5 | 3.8% | 0.6% | -1.0 | -0.6% | 2.6
Cc1nnc2n(C3CCCCC3)c(=O)c3c4c(sc3n12)CCC4 | 0.4 | x | 13.4% | x | x | x | 1.6
O=c1[nH]c2ccccc2cc1-c1nnn(-c2ccc(F)cc2)n1 | u | 1.5 | 0.0% | 5.2% | 0.0 | 4.6% | 10.9
O=C(C1CCN(S(=O)(=O)c2ccccc2F)CC1)N1CCc2ccccc21 | -5.6 | 6.2 | x | 1.9% | 1.4 | 0.0% | x
C[C@H](CO)N1C[C@H](C)[C@@H](CN(C)S(=O)(=O)c2cccs2)Oc2ccc(NC(=O)Cn3cnnn3)cc2C1=O | x | 16.9 | x | 1.1% | -0.5 | -5.7% | x
O=[n+]1c2c(n([O-])c3cc(F)c(N4CCCC4)cc31)CCC2 | x | -2.8 | x | 2.9% | 5.9 | u | x
Cc1cccn2c(=O)c(/C=C(\C#N)C(=O)NC3CCS(=O)(=O)C3)c(N3CC(C)OC(C)C3)nc12 (stereo not given) | -17.3 | 15.4 | 13.1% | 0.1% | -0.1 | x | -7.6
CCOC(=O)c1ccc(NC(=S)N(CCN2CCCCCC2)Cc2ccco2)cc1 | 2.4 | -1.7 | -23.5% | 7.9% | 2.4 | x | -4.2
CC(C)(C)C(=O)Nc1cc(NC(=O)C(C)(C)C)cc(C(=O)Nc2cc(C(=O)O)cc(C(=O)O)c2)c1 | -0.3 | -6.9 | -1.1% | 1.3% | -0.5 | -0.8% | x
Cc1ccc(S(=O)(=O)N2CCC(C(=O)NCCc3ccccn3)CC2)cc1 | 4.1 | -10.5 | 2.0% | 0.1% | -0.3 | 22.4µM* | -1.3
COc1ccc(C2=NNC(c3cccs3)=Nc3ccc(OC)cc32)cc1 | -10.1 | 10.2 | -1.1% | 1.8% | -0.4 | 2.1% | 1.6
Cc1ccc(C)c(NC(=O)CSc2nc(C)cs2)c1 | 5.2 | 25.8 | x | 2.3% | -0.3 | 0.6% | x
Cc1ccc(C(=O)NCCC(C)C)cc1NC(=O)c1nsc2ccccc12 | x | -10.0 | x | 6.5% | 1.5 | 100.1% | x
CCS(=O)(=O)N1CC(=O)N(c2cccc(Cl)c2)C(C)(C(=O)NC2CCCCCC2)C1 (stereo not given) | x | -0.8 | x | 1.6% | -1.0 | -0.7% | x
CC(C)NC(=O)N(C)C[C@H]1Oc2c(cccc2N(C)C)C(=O)N([C@H](C)CO)C[C@@H]1C | x | -1.6 | x | 2.1% | 0.4 | -2.2% | x
COC(=O)C1=C(N)Oc2cc(C)n(CC3CCCO3)c(=O)c2C1c1ccccc1OC (stereo not given) | -2.5 | 2.0 | 28.4% | -1.3% | -0.9 | 1.0% | 2.5
CCOC(=O)c1cc(C(=O)NNC(=O)c2cccc([N+](=O)[O-])c2)c(C)nc1C | 20.4 | 3.0 | x | 1.6% | -0.2 | x | x
CCOC(=O)Nc1ccc2c(c1)N(C(=O)CN(CC)CC)c1ccccc1CC2 | -8.2 | -0.2 | 0.4% | -0.3% | -0.7 | -0.2% | -7.6
Next results follow.
SMILES | TRPV1 potentiator | TRPML1 blocker | Sfp inh | PINK1 expr mod | TRPML1 ag | ClpP mod | Menin MLL FP FL
O=C(Cn1c(-c2cccs2)cc2ccccc21)NCCc1ccc(Cl)cc1 | x | 2.8 | x | 1.7% | 1.9 | 20µM* | x
O=C(COC(=O)CCC(=O)c1cccs1)NCCc1ccccc1 | x | -2.2 | x | 0.2% | -0.7 | x | x
O=C1OC[C@H](Cc2ccc3c(c2)OCO3)/C1=C\c1ccc2c(c1)OCO2 | -11.4 | 16.9 | x | -0.8% | 0.5 | -3.8% | x
Cc1c(-c2ccccc2)[n+](=O)c2c(n1[O-])CCCC2 | 0.5 | -0.4 | 3.5% | 1.4% | -0.4 | x | -1.2
Fc1ccc(NC(=S)Nc2cccc(Cl)c2)cc1 | 17.7 | 29.0 | -27.1% | 3.6% | 0.4 | -1.3% | -6.0
CCCC(=O)Nc1ccc2c(c1)nc(CCNC(=O)c1ccco1)n2C | 4.2 | 2.0 | -6.1% | 0.0% | -1.3 | x | 0.7
N#CC(C#N)=NNc1ccc(S(=O)(=O)N2CCCCC2)cc1 | -8.4 | -10.5 | 14.8% | u | 0.3 | -2.2% | 5.9
CC(=O)Nc1ccc(S(=O)(=O)Nc2nc3ccc(C)cc3s2)cc1 | 4.1 | 13.3 | 29.0% | -3.3% | -0.9 | -1.1% | 3.5
CCOC(=O)N1CCN(c2ncnc3c2oc2nc(C)c4c(c23)CC(C)(C)OC4)CC1 | -1.6 | x | 12.0% | x | x | x | 1.2
COCc1[nH]nc2c1C(c1ccccc1OC)C(C#N)=C(N)O2 (stereo not given) | 3.4 | 15.2 | -9.2% | -0.4% | -0.6 | -0.9% | 4.5
Brc1ccc2nc(-c3ccncc3)c(NC3CCCC3)n2c1 | -12.5 | 7.5 | -20.8% | -0.6% | -0.2 | 0.6% | -4.1
O=C(c1cccc2c1-c1ccccc1/C2=N/O)N1CCCCC1 | 27.6 | 1.7 | 6.2% | 4.2%[38.3 µM] | -0.3 | -11.3% | 4.4
Cc1[nH]c2ccccc2c1-c1nc(-c2ccc(Cl)cc2)nnc1-c1ccccc1 | 0.5 | x | 12.9% | x | x | x | 4.1
Cc1ccc(-c2nc(-c3cccnc3)sc2CC(=O)O)cc1 | 0.7 | 35.2 | 17.4% | 3.8% | 1.3 | 3.4% | 2.0
CC(CNC(=O)CCS(=O)(=O)c1ccc2c(c1)oc(=O)n2C)c1ccccc1 (stereo not given) | -5.5 | -5.9&14.2 | 14.5% | 1.5%&0.3% | -0.5&-0.9 | 0.8%&1.3% | x
Cc1cc(C)nc(N2CCCC(C(=O)Nc3nc4ccc(S(C)(=O)=O)cc4s3)C2)n1 (stereo not given) | -2.2 | 19.8 | 4.4% | -0.3%[38.3 µM] | 4.1 | -16.5% | 3.9
CC1CN(C(=O)COC(=O)c2ccc(N(C)C)cc2)CC(C)O1 (stereo not given) | -14.4 | -10.5 | 7.4% | 2.6% | -0.1 | x | -0.8
CCOc1ccc(NC(=O)CSc2nc(-c3ccc(F)cc3)cc(C(F)(F)F)c2C#N)cc1 | x | -2.9 | x | -0.8% | 1.8 | -3.6% | x
CCC(C)c1ccc(S(=O)(=O)N2CCN(C(C)CC(=O)O)CC2)cc1 (stereo not given) | -8.5 | -15.5 | -8.5% | -0.2% | 0.4 | 0.0% | -2.2
O=C(Nc1ccccc1N1CCOCC1)c1ccc(S(=O)(=O)NCc2ccco2)cc1 | -9.0 | -5.7 | 4.6% | -0.3% | -1.0 | 0.9% | 5.9
Cc1nc2nc[nH]n2c(=O)c1NS(=O)(=O)c1ccc([N+](=O)[O-])cc1 | 12.0 | 19.4 | -21.6% | 1.2% | 0.1 | x | 2.3
Cc1ccc(CC(=O)Nc2ncc([N+](=O)[O-])s2)cc1 | 0.2 | -2.0 | 5.8% | 4.1% | 4.6 | 1.0% | 1.1
C/C(CC(=O)Nc1cc(C)ccn1)=N\NC(=O)c1ccccc1C | 6.5 | -10.5 | -11.8% | 2.1% | 61.2* | x | u
Cc1ccc(NC2CCCN(C(=O)c3ccoc3C)C2)cc1C (stereo not given) | -9.9 | 14.5 | 2.4% | -2.2% | 0.3 | -1.4% | x
O=S(=O)(NC1CCCCC1)c1ccc(Br)cc1 | -9.2 | 6.0 | 12.5% | 11.0% | 1.4 | -0.7% | -0.3
Other records follow.
SMILES | TRPV1 potentiator | TRPML1 blocker | Sfp inh | PINK1 expr mod | TRPML1 ag | ClpP mod | Menin MLL FP FL
C=CCN(CC=C)C(=S)NC(=O)c1ccc(-c2ccccc2)cc1 | 5.1 | -15.6 | u | 3.8% | -0.7 | 1.1% | -2.0
CCCn1c(C(C)Nc2nc(-c3ccc(C)cc3)cs2)nc2cc(Cl)c(N3CCCCC3)cc21 (stereo not given) | -13.3 | 0.2 | -3.6% | 12.1% | -0.5 | -3.0% | 5.1
CCCS(=O)(=O)NC(=O)C1(C)CCCN(C(=O)CCc2cccs2)C1 (stereo not given) | x | x | x | 0.5% | -0.1 | -1.0% | x
ClC(=Nc1cccc2ccccc12)N(c1ccccc1)c1ccccc1 | x | x | x | 0.5% | 1.2 | -10.3% | x
CCOC(=O)c1c(CN(C)C)n(-c2ccc(C)cc2)c2cc(Br)c(O)cc12 | 17.3 | 11.5 | -5.7% | 0.5% | -0.1 | u | 8.7
O=C1c2cccnc2C(=O)N1Cc1ccc(S(=O)(=O)N2CCOc3ccc(Cl)cc32)cc1 | -9.8 | 12.5 | 4.5% | 0.9% | -0.2 | 0.5% | x
CCC(C)(C)NC(=O)C1CC(=O)N(CCc2ccc(F)cc2)C1 (stereo not given) | 9.5 | -13.2 | 9.1% | -0.1% | -0.2 | -8.6% | 0.8

Compounds were not picked by outcome; any-hit rate near 4.4%.
